Menin MLL FP FL: qHTS Assay for Inhibitors Targeting the Menin-MLL Interaction in MLL Related Leukemias: Competition With Fluorescein Labeled MLL-derived Peptide; Fluorescence polarization, fluorescein-MLL peptide displacement from menin; FP activity change, % at 61.4 µM; 290,000 tested, under 10 active; AID 1766, 2009; inconclusive = falling polarisation curve, or a change in total fluorescence; inactive = total fluorescence flat and polarisation flat or rising; no compound was filed as active; the % refers to the polarisation; negative = inhibition;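 note: % of control where 0% means no effect; inhibitors lower the polarisation; unlabelled MLL peptide was the positive control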
TRPML1 inh: qHTS for Inhibitors of the Human Mucolipin Transient Receptor Potential 1 (TRPML1); 0.02% of 390,000 active; TRPML1-inducible cells, Ca2+ dye fluorescence, FDSS; active compounds read low; inhibition of EC80 agonist-evoked calcium signal; activity change, negative = inhibition, % (test concentration not listed); Mucolipin-1 (Homo sapiens), Q9GZU1; AID 624415, 2012; in the data active means activity change below about -50%; inconclusive means about -30% to -50%; inactive means above about -30%;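 note: stimulus is agonist 54-4 at its EC80 concentration; % is set by controls: 0 for no effect and ±100 for the full control effect; compound concentration not given in the record; the text of the record puts the active cut at -80%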
Target sequence (Q9GZU1 whole entry, looked up): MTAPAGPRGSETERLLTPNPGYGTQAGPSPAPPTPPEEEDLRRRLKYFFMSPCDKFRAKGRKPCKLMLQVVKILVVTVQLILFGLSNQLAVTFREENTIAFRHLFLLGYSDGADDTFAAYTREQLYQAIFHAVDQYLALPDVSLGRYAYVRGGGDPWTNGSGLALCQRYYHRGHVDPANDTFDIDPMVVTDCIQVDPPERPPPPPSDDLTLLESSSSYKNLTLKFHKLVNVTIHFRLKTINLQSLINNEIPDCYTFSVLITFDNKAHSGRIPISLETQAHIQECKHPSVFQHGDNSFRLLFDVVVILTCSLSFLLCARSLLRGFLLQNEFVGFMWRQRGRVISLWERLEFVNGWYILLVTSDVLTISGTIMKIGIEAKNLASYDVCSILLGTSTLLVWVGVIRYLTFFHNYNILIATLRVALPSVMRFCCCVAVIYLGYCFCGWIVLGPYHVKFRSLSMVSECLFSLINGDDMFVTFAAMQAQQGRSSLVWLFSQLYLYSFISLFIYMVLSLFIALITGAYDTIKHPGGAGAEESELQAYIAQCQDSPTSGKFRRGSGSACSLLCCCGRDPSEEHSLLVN
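Tet-induced TRPML1-DL cells loaded with Ca8 no-wash calcium dye were read kinetically on FDSS. Compound addition was followed by EC80 agonist 54-4 (4 uM final); inhibition was read over 110 s.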
ClpP mod: qHTS Assay for Activators of ClpP. Potency, µM (titrated, usually from 57.5 µM), inactives show top-dose activity change, negative = active. AID 651965, 2013. ATP-dependent Clp protease proteolytic subunit (Bacillus subtilis (strain 168)), P80244. 1.9% of 340,000 active. purified B. subtilis ClpP, FRET peptide cleavage, 20 min; active = well fitted falling curve with a large enough effect; inconclusive = small, poorly fitted or top-dose-only effect; inactive = no such curve, though single readings can be large or run the other way; note: potency is the fitted concentration of half-maximal effect; the source files actives as falling curves though it sought activators and does not explain the sign; nearly all actives have a fitted effect of over 65% in size; many hits overshoot -100%
Target sequence (P80244 whole entry, looked up): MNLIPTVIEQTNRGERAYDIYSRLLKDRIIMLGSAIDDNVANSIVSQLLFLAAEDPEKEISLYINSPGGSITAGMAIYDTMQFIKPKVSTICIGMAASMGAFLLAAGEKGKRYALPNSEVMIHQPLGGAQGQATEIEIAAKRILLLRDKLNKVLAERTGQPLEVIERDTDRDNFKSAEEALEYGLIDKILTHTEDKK
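ClpP 10 microg/mL final, pH 8 Tris/KCl buffer with BSA, glycerol, Tween-20; compound pinned in; FRET-FV substrate; RT 20 min; Ex320/Em430; ΔFRET vs ADEP 5.8 microM, DMSO, no enzyme.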
TRPV1 PAM: HTS Assay for Compounds that Act as Potentiators of the Vanilloid Receptor 1; Transient receptor potential cation channel subfamily V member 1 (Homo sapiens), Q8NER1; TRPV1-expressing cells, Fluo-8 calcium influx, capsaicin EC20 potentiation; host cell line not named in the record; control for the full effect not named in the record; potentiation, % at 8.33 µM; 0.02% of 320,000 active; AID 540277, 2011; active means potentiation above 80%; inconclusive means 30% to 80%; inactive means below 30%; note: 0% is about no effect
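TRPV1-expressing cells were cultured overnight at 35.5C and loaded with Fluo-8 calcium dye for 40 to 90 min at room temperature. After a 10 s baseline, compound was added and calcium influx was read kinetically for 3 min (ex 480/em 520 nm).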
gsp antagonist: qHTS for Antagonists of gsp, the Etiologic Mutation Responsible for Fibrous Dysplasia/McCune-Albright Syndrome: qHTS. 0.4% of 340,000 active. Potency, µM (titrated, usually from 76.9 µM), for inactives: at the highest dose activity change, negative = inhibition, actives largely listed as inhibitors. AID 624288, 2012. gsp-mutant cells, cAMP HTRF, 30 min; control for the full effect not named in the record; active = falling curve of any shape with a large fitted effect; inconclusive = falling curve, mostly with a smaller effect; inactive = flat or rising curve; cell line not stated here;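 note: intracellular cAMP measured with PDE inhibitor Ro 20-1724 present during compound exposure; potency is the fitted concentration of half-maximal effect; % is set by controls: 0 for no effect and ±100 for the full control effect; nearly all actives have a fitted effect of over 65% in size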
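Cells in G418 medium, seeded 16-24 h, 37C; buffer exchange to DPBS + 1 mM CaCl2, 0.5 mM MgCl2, 0.05% BSA; cpds in DMSO + […] (300 uM stock), 30 min 37C; HTRF cAMP detection.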
Sfp PPTase inh: qHTS Assay for Inhibitors of Bacillus subtilis Sfp phosphopantetheinyl transferase (PPTase). Potency, µM, for inactives: max response, negative = inhibition, most hits filed as inhibitors. Biochemical Sfp PPTase activity, qHTS. 4'-phosphopantetheinyl transferase ffp (Bacillus subtilis), Q9F4F7. 3.5% of 310,000 active; active = well fitted inhibition curve with a large enough effect; inconclusive = small, poorly fitted or top-dose-only effect, or another doubt; inactive = no such curve, though single readings can be large or run the other way;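 note: the enzyme is Sfp with the accession as filed and its product quenches rhodamine fluorescence; potency is the fitted concentration of half-maximal effect; 0% = enzyme reaction without inhibitor and -100% = no enzyme wells; top concentration of the series not given in the record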
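Step 1, compound plus 15 nM Sfp-PPTase, 15 min, room temperature. Step 2, add rhodamine-CoA (5 uM) and BHQ-2-YbbR (12.5 uM). Step 3, read 525/598 nm fluorescence at 0 and 30 min.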
gsp agonist: qHTS for Agonist of gsp, the Etiologic Mutation Responsible for Fibrous Dysplasia/McCune-Albright Syndrome: qHTS; gsp mutant cells, cAMP HTRF, 30 min; control for the full effect not named in the record; Potency, µM (top dose mostly 76.9 µM), for the others: top-dose activation (cAMP increase), hits mostly activators; 0.13% of 340,000 active; active = well fitted activation curve with a large enough effect; inconclusive = small, poorly fitted or top-dose-only effect, or another doubt; inactive = no such curve, though single readings can be large or run the other way; cell line not stated here;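 note: phosphodiesterase inhibitor Ro 20-1724 added with compounds to block cAMP breakdown; potency is the fitted concentration of half-maximal effect; nearly all actives have a fitted effect of over 60% in size; about a fifth of the inactives were tested at one dose only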
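Cells stably selected in G418 were plated at 2000/well, grown 16-24 hr, then given compounds in DMSO with the PDE inhibitor […] (300 uM solution added) for 30 min at 37C; cAMP was read by HTRF.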
* hit, by the source's call; ? = inconclusive; . = not tested or not shown; [ ] = another dose, or the depositor's remark.

Value order: Menin MLL FP FL	TRPML1 inh	ClpP mod	TRPV1 PAM	gsp antagonist	Sfp PPTase inh	gsp agonist
> COc1ccc(S(=O)(=O)N2CCOC2CNC(=O)C(=O)NCc2ccco2)cc1OC (stereo not drawn)
    -0.5	14	.	2	-10%	13%	-6%[15.4 µM]
> COc1cccc(NC(=O)CN(C)C(=O)CNC(=O)c2sc3ccccc3c2Cl)c1
    .	-5	-1.7%	-17	-11%	.	-44%[inhibitor]
> COc1ccccc1-c1nnc(-c2ccc(N3CCOCC3)cc2)o1
    -2.1	2	18µM*	2	-9%	-3%	?
> O=C(NC1CC1)C1=C[C@@H](c2ccc3c(c2)OCO3)C[C@@H](OCc2ccc(CO)cc2)O1
    -4.1	-5	-1.5%	7	-15%	5%	30%
> O=C(Nc1nc(-c2cc(Cl)sc2Cl)cs1)c1ccccc1
    -2.2	-21	-18%	12	-15%	?	-5%
> Cc1ccc(Sc2ccc(NC(=O)CCl)cc2)c(C)c1
    9.6	9	-0.1%	-6	-8%	-6%	3%
> CCc1ccc(Nc2n[n+](-c3ccccc3)c(-c3c(Cl)cccc3Cl)s2)cc1
    -6.4	41	-2.5%	-9	32µM*	71µM*	.
> COc1cc2c(cc1OC)C(C)N(S(=O)(=O)c1cnc(Cl)c(Cl)c1)CC2 (stereo not drawn)
    .	-16	-1.8%	4	12%	2%	?
> COc1cccc(C(=O)NCC(c2cccs2)N2CCc3ccccc32)c1 (stereo not drawn)
    .	14	-3.2%	-6	-18%	.	-45%[inhibitor]
> NNC(=S)Nc1ccccc1Cl
    -0.6	1	.	-4	-5%	10%	-27%
> CC(C)(C)NC(=O)NC(=O)CN1CCN(C(c2ccccc2)c2ccccc2)CC1
    -5.9	-10	0.5%	-17	-11%	-5%	?
> NC(=S)Nn1c(CCC(=O)O)ccc1-c1ccccc1
    1.3	-9	1.1%	0	2%	9%	-5%
> Cc1cc(C(=O)NCc2csc(-c3ccccc3)n2)no1
    .	3	-1.9%	16	8%	13%	20%
> CCOC(=O)c1cc(C)sc1NC(=O)CSc1nnnn1C
    -2.5	29	-2.2%	5	-9%	1%	10%
> CC1(C)C2([N+](=O)[O-])CN(CCO)CC1([N+](=O)[O-])CN(CCO)C2
    -2.3	0	-1.0%	-17	9%	-14%	0%

Arranged by the number under TRPML1 inh (low to high): 3 of the compounds above.
mol,Menin MLL FP FL,TRPML1 inh,Sfp PPTase inh,gsp agonist
COc1cc2c(cc1OC)C(C)N(S(=O)(=O)c1cnc(Cl)c(Cl)c1)CC2 (stereo not drawn),.,-16,2%,?
Cc1ccc(Sc2ccc(NC(=O)CCl)cc2)c(C)c1,9.6,9,-6%,3%
COc1ccc(S(=O)(=O)N2CCOC2CNC(=O)C(=O)NCc2ccco2)cc1OC (stereo not drawn),-0.5,14,13%,-6%[15.4 µM]

Next results follow:
Value order: Menin MLL FP FL	TRPML1 inh	ClpP mod	TRPV1 PAM	gsp antagonist	Sfp PPTase inh	gsp agonist
> Cc1cccc(NC(=S)NNC(=O)c2ccco2)c1
    -1.6	7	0.8%	16	2%	0%	-16%
> CC(=O)N(C)C1(c2nnnn2CCOC(=O)Nc2cccc3ccccc23)CCCC1
    2.1	4	-3.0%	-5	-8%	10%	-11%
> Cc1cc(NC(=O)COC(=O)c2ccc(NS(=O)(=O)c3ccc(C)c(C)c3)cc2)no1
    2.8	-10	-2.6%	-8	-14%	14%	?
> CCOC(=O)CSc1nc2cc(C(=O)N3CCC(C(N)=O)CC3)ccc2c(=O)n1-c1ccccc1
    -2.9	0	-6.7%	2	-12%	14%	-3%
> Cc1ccc(CCC(=O)Nc2nccs2)o1
    -2.7	-8	-1.0%	1	1%	79µM*	5%
> COc1ccc(S(=O)(=O)n2nc(OC(=O)c3ccc(C)cc3)cc2N)cc1
    4.9	-4	0.6%	6	3%	-5%	?
> CCN1CCN(c2cc(N3CCc4ccccc4C3)c(F)cc2[N+](=O)[O-])CC1
    3.9	0	-5.8%	-2	17%	-8%	-3%
> O=C1c2ccccc2C(=O)N1CCCCN(C(=O)c1cccc([N+](=O)[O-])c1)c1ccc(Cl)cc1
    0.9	-1	1.7%	5	-25%	10%	19%
> COc1ccc(NC(=O)CN2CCC(C)CC2)cc1
    0.0	-1	0.3%	-20	13%	19%	13%
> Cc1cc(C(=O)CSc2nnc(N)s2)c(C)n1CCc1ccc(Cl)cc1
    2.0	21	1.5%	-18	-12%	-9%	10%
> COc1ccc(C(=O)NCCc2nnc(SCc3nc4ccccc4c(=O)[nH]3)n2C)cc1
    5.3	10	-0.1%	10	4%	-17%	-10%
> CC1(C)NC(=O)N(CC(O)COc2ccccc2C(=O)Nc2ccccc2)C1=O (stereo not drawn)
    1.7	3	0.5%	8	13%	13%	12%
> O=C(O)c1nccnc1C(=O)Nc1ccc(S(=O)(=O)N2CCOCC2)cc1
    1.3	0	.	6	9%	6%	-3%
> Cc1ccc(NC(=O)c2ncn(CCCNCCCc3ccccc3)n2)cc1C
    .	29	-1.6%	.	8%	.	.
> COC(=O)c1sccc1NC(=O)/C=C/c1ccc(Cl)cc1
    2.1	1	139%	-5	0%	4%	-40%[inhibitor]
> Cc1nc2ccc(Br)cn2c1NC(C)(C)C
    -0.4	6	-5.1%	-6	3%	15%	4%
> CCOc1ccc(NC(=O)c2cccc3ccccc23)cc1
    3.0	1	-3.4%	?	4%	-6%	14%
> N#Cc1ccsc1NC(=O)CN1CCCCCC1
    2.6	-4	0.3%	-8	0%	11%	8%
> Cc1c(C(=O)NCCN(C)C)oc2ccc(S(=O)(=O)N3CCCC3)cc12
    -2.1	10	0.8%	-7	13%	19%	-5%[15.4 µM]
> CC1=C(C(=O)OC2CCCC2)C(c2coc3ccccc3c2=O)C2=C(CCCC2=O)N1 (stereo not drawn)
    -2.5	-8	.	-5	-13%	-2%	?
> N#CCc1c(C#N)c(N)nc(N2CCN(C=O)CC2)c1C#N
    -2.6	25	-7.6%	1	4%	2%	36%
> Cc1ccccc1C(=O)NC(=S)Nc1ccc(Oc2ccc(Cl)cc2)cc1
    4.6	5	2.0%	12	?	-2%	15%
> COc1ccccc1N1C(=O)CC(N2CCc3ccccc32)C1=O (stereo not drawn)
    1.8	-19	-4.6%	4	-9%	-8%	19%
> O=C(O)CCn1c(=O)sc2ccccc21
    -3.2	-20	-2.4%	-16	8%	-4%	?
> C=CCNC(=O)c1ccc2c3n(nc2c1)-c1ccc(C)cc1CO3
    3.0	-2	4.4%	26	-14%	-2%	.
> Cc1cccc(CS(=O)(=O)Cc2ccc(C(=O)NCCN3CCCCC3C)o2)c1 (stereo not drawn)
    1.2	6	-0.3%	2	7%	17%	-21%
> CCOC(=O)[C@H]1CCC[C@@H](NS(=O)(=O)c2ccc(NC(C)=O)cc2)C1
    -1.6	4	-1.1%	1	2%	14%	?
> O=C(CSc1nc2ccccc2c(=O)n1NC(=O)Cc1ccccc1)NCc1ccccc1
    -0.4	-1	-0.6%	-4	-8%	-27%	4%
> O=C(Nc1ccc(F)cc1)c1cccnn1
    -2.8	13	-1.0%	1	8%	10%	-19%
> Nc1ccccc1SCC(=O)N1CCc2ccccc21
    -0.4	3	-6.6%	5	0%	-1%	6%
> O=S(=O)(c1cc(Cl)ccc1Cl)N1CCc2ccccc21
    5.7	.	-1.5%	10	-26%	0%	-18%
> Cc1cc(C)c(S(=O)(=O)Nc2ccc(O)cc2)cc1C
    1.0	7	-1.0%	0	2%	2%	-64%[inhibitor]
> CC(C)Nc1nc2ccccc2c(=O)[nH]1
    5.2	1	.	5	-1%	6%	-2%[15.4 µM]
> C[C@@H](NCCCn1cnc2c(OCc3ccccc3)ncnc21)c1cccc2ccccc12
    .	-11	1.0%	.	-7%	.	.
> Cc1ccc(-c2cnc(SCC(=O)N3CCCc4ccccc43)n2C)cc1
    -2.3	40	-3.6%	0	-24%	-8%	11%
> CC(C)(C)S(=O)(=O)c1nc2ccccc2s1
    1.1	-24	0.7%	?	-7%	8%	-24%
> O=C(COC(=O)c1cccc(S(=O)(=O)N2CCc3ccccc32)c1)Nc1ncc(C(F)(F)F)cc1Cl
    1.2	9	-2.2%	-7	5%	4%	9%
> COc1ccc(CNc2c(CO)cnc3c2cnn3C)cc1
    0.1	25	-1.4%	-14	4%	22%	?
> N#CCSC1=Nc2ccccc2C2=NC(CCC(=O)N3CCN(c4ccccc4)CC3)C(=O)N12 (stereo not drawn)
    3.2	29	-11%	9	24%	?	?
> O=c1[nH]cc(COCc2ccccc2)c(=O)[nH]1
    -1.8	-13	0.1%	22	9%	28%	19%

As entered above:
`N#CCSC1=Nc2ccccc2C2=NC(CCC(=O)N3CCN(c4ccccc4)CC3)C(=O)N12` (stereo not drawn) – TRPV1 PAM = 9
`Cc1cc(NC(=O)COC(=O)c2ccc(NS(=O)(=O)c3ccc(C)c(C)c3)cc2)no1` – Sfp PPTase inh = 14%

Source: PubChem
